High-throughput results deposited in PubChem BioAssay by National Center for Advancing Translational Sciences (NCATS).
Rango-impB inh = inhibitors of Rango-importin beta complex formation. Q14974. Rango CFP/YFP FRET sensor + importin beta, 45 min. Potency, µM (titrated, usually from 92.2 µM), without a hit: top-dose inhibition of complex formation. actives 0.031% (n = 340,000); active = rising FRET ratio curve, often small or poorly fitted; inconclusive = mostly compound fluorescence or quenching in the first reads; inactive = flat curves in all reads;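 also: potency is read from the fitted curve at half-maximal effect; 0% = DMSO wells and 100% = buffer wells lacking importin beta; nearly all actives have a fitted effect of over 15% in size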
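FRET biosensor Rango (snurportin 1 IBB between N-terminal EYFP and C-terminal Cerulean), 50 nM in PBS/1 mM DTT/0.02% Tween-20/0.1% BSA, preincubated 5 min RT with compound; 0.125 microM importin beta added, 45 min RT, CFP/YFP FRET ratio read.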
GLA inh pH 4.5 = alpha-galactosidase A (human) inhibition, pH 4.5; 230,000 tested, under 10 active; purified enzyme, 4-MU-alpha-Gal fluorescence, pH 4.5; activity change, negative = inhibition, % at 105 µM; P06280; inconclusive = small, poorly fitted or top-dose-only inhibition, or a rising curve; inactive = flat fitted curve, though single readings scatter; no compound was filed as active;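 also: 0% = full activity with enzyme and -100% = basal without enzyme; dose as in the result columns while the protocol names 77 µM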
Target sequence (P06280 whole entry, looked up): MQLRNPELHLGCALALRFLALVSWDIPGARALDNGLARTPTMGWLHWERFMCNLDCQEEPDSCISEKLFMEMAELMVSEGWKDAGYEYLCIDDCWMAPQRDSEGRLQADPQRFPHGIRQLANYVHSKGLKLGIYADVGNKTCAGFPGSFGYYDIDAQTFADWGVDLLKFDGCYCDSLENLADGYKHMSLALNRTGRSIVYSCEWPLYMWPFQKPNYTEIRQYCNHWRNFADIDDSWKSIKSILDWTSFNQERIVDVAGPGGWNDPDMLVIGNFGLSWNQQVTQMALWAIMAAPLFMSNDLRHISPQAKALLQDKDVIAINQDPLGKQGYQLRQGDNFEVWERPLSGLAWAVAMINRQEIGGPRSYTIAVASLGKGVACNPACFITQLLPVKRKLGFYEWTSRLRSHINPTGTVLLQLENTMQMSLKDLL
miR-21 FLuc = miR-21 reporter, rising signal. HeLa miR-21 FLuc reporter, luciferase, 48 h. Potency, µM (titrated, usually from 38.3 µM), inactives show at the top dose reporter change, positive = more light. 340,000 tested, under 10 active; active = well fitted rising curve with a large enough effect; inconclusive = small, poorly fitted or top-dose-only effect; inactive = no such curve, though single readings can be large or run the other way;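 also: % of control where 0% means no effect; miR-21 action dims this reporter so a rising signal means less miR-21 action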
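Using DMEM plus 10% FBS, HeLa miR-21-FLuc cells are incubated with test compounds (final up to about 40uM) for 48 hours; firefly luciferase signal is then imaged following reagent-mediated lysis.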
Rango dissoc inh = inhibitors of RanGTP-induced Rango-importin beta complex dissociation; actives 0.071% (n = 340,000); O95149+P62826; Biochemical FRET Rango-importin beta, RanGTP-induced dissociation; Potency, µM (titrated, usually from 46.1 µM), without a hit: at the top dose activity change, negative = inhibition; AID 540253; active means falling FRET ratio curve, often poorly fitted, with flat reads before Ran was added; inconclusive means other falling curves, or compound fluorescence or quenching; inactive means flat or rising ratio curve;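 also: potency is read from the fitted curve at half-maximal effect; % of control where 0% means no effect; nearly all actives have a fitted effect of over 45% in size; -100% = wells without RanGTP and RCC1; the record marks most hits as doubtful in a second field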
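Two FRET readings bracket the reaction: one 5 min after compound meets Rango–importin beta, another 45 min after RanGTP-RCC1 (0.6 uM Ran, 0.2 uM RCC1, 2 mM GTP) is added. Only the second defines inhibition.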
Starred values were filed as active, the others as inactive; ? = inconclusive; / = not tested or not shown; & = joins results of further samples. Not all compounds are listed, so the mix of outcomes need not match the whole.

Sample of the layout (2 entries):
SMILES | Rango-impB inh | GLA inh pH 4.5 | miR-21 FLuc | Rango dissoc inh
O=C(Cn1cnc2c(NCc3ccccc3)ncnc21)N1CCN(c2ccccn2)CC1 | 2.6% | / | / | -10.1%
CC1CN(C(=S)Nc2ccc(Cl)cc2)CC(C)O1 (stereo not given) | -1.6% | / | 8.4% | 2.4%

The list itself, from the start:
SMILES | Rango-impB inh | GLA inh pH 4.5 | miR-21 FLuc | Rango dissoc inh
O=C(Cn1cnc2c(NCc3ccccc3)ncnc21)N1CCN(c2ccccn2)CC1 | 2.6% | / | / | -10.1%
CC1CN(C(=S)Nc2ccc(Cl)cc2)CC(C)O1 (stereo not given) | -1.6% | / | 8.4% | 2.4%
OCCCNc1nc(-c2ccccc2)c2cc(Br)ccc2n1 | ? | / | 0.0% | ?
C=CCNC(=O)c1ccc2c3n(nc2c1)-c1ccccc1CO3 | ? | 9.7 | 4.2% | 9.5%
O=C(NCCN1CCOCC1)Nc1ccccc1 | -1.9% | 5.1 | -1.1% | -1.1%
Nn1c(Nc2ccccc2)nc2sc3c(c2c1=O)CCCC3 | 2.5% | 6.1 | -42.3% | -0.1%
COc1ccccc1CNC(=O)CSc1ccccc1 | -0.1% | 9.1 | -57.8% | 0.5%
CN1CCN(C(=O)c2ccc(-c3ccccc3)cc2)CC1 | -0.1% | / | -16.9% | -8.3%
CNC(=O)Nc1ccc(Cl)cc1 | -1.9% | -3.0 | -26.5% | -7.4%
CC[C@H]1C(Nc2ccccc2)C[C@@H]2CCN3C(=O)CC[C@H]1[C@H]23 (stereo not given in full) | ? | / | / | 5.6%
Cc1cc(C)n2nc(SCc3nnc(SCCCCl)o3)nc2n1 | 8.6% | 1.4 | -4.2% | -1.8%
COC(=O)Nc1ccc(N2CCOCC2)c(S(=O)(=O)N2CCOCC2)c1 | -0.1% | / | -3.4% | 0.4%
CC1CN(C(=O)CSc2ncnc3sccc23)CC(C)O1 (stereo not given) | -1.5% | 1.1 | -8.5% | -0.7%
CC(=O)c1c(NCCc2ccccc2)cc(C)oc1=O | -3.6% | 7.4 | -9.4% | -3.0%
COc1ccc(C(=O)N/N=C/c2cn[nH]c2-c2ccc(OC)cc2OC)cc1 | -2.2% | -1.5 | -18.3% | 9.0%
CC1CC(C)(C)OC(c2ccc(C(C)C)cc2)O1 (stereo not given) | 1.9% | / | / | -11.4%
CCCc1cc(=O)c2ccc(OC/C(C)=N/O)cc2o1 | -0.7% | 5.7 | -5.8% | -3.5%
Nc1ccc2oc3ncccc3c(=O)c2c1 | ? | -0.5 | -18.2% | 6.5%
COc1cc(Cc2nc3ccc(S(=O)(=O)N4CCOCC4)cc3[nH]2)cc(OC)c1OC | -1.0% | 3.2 | 3.0% | 0.6%
CCN(CC)CCCn1c(=S)[nH]c2ccc(Cl)cc2c1=O | -0.8% | 2.0 | -4.7% | 14.8%
CC(C)(C)OC(=O)C[C@@H]1C/C=C\C[C@H](CC(=O)N[C@@H](CO)Cc2ccccc2)C(=O)N[C@H](Cc2ccccc2)COC1=O | 0.5% | / | / | 17.6%
COc1ccccc1N(C(=O)CCl)c1cn(C(C)=O)c2ccccc12 | -1.0% | -5.0 | ? | 2.6%
Cc1nc(CCNC(=O)CC2C(=O)NCCN2Cc2ccccc2)sc1C (stereo not given) | -0.2% | / | 1.1% | -11.8%
CN(CC(=O)Nc1cccc(F)c1)C(=O)c1sccc1-c1ccccc1 | -1.9% | / | / | -1.0%
O=C(O)CC1c2ccccc2C=Cc2ccccc21 | -0.7% | / | / | -14.5%
COc1ccc(C(=O)NN2CC(O)=C(c3nc4ccccc4n3C)C2=N)cc1OC | -0.1% | 2.2 | -0.8% | -1.2%
CCc1nnc(NC(=O)CSc2nnc(CNc3cccc(Cl)c3)n2CC)s1 | 0.7% | -5.5 | -1.8% | 19.6%
COc1ccc(C(=O)C2CCCN(C(=O)c3cccnc3OC)C2)c(C)c1 (stereo not given) | -0.2% | 0.0 | -4.4% | -7.4%
Nc1nonc1-n1nnc(C(=O)N/N=C/c2ccc(Br)cc2)c1CSC1=NCCS1 | 0.8% | -3.5 | -3.7% | 1.5%
O=C(CCS(=O)(=O)c1ccc(Br)cc1)Nc1cc(F)ccc1F | -1.6% | -4.6 | 3.6% | 11.3%
O=C(c1cc(-c2ccccc2)on1)N1CCc2ccccc2C1 | -1.6% | 6.0 | -1.2% | -5.2%
O=C1CC(c2ccc(F)cc2)Cc2nc(N3CCc4ccccc43)ncc21 (stereo not given) | / | 2.9 | 1.2% | /
CC(C)CC(=O)N1CCC(O)(CS(=O)(=O)Cc2ccccc2Cl)CC1 | -5.7% | -1.7 | -1.7% | 17.9%
S=C(c1cccs1)N1CCCC1 | -6.7% | -5.5 | -1.4% | 13.5%
O=C(Nc1ccc(Br)cn1)c1ccc(Cl)s1 | 0.1% | / | -26.7% | -0.4%
COc1ccc(-c2sc3ccc(OC)cc3c2-c2ccc(OCCN3CCOCC3)cc2)cc1 | -2.1% | / | / | 1.5%
C#CCn1c(=NC(=O)c2cc(-c3cccs3)nc3ccccc23)sc2cc(S(N)(=O)=O)ccc21 | ? | -2.8 | -7.7% | ?
COc1ccc(-n2ncc3c2CC(C)(C)CC3NC(=O)CCCN2CCCC2=O)cc1 (stereo not given) | 0.8% | / | -2.7% | 6.6%
CSc1cc(C)c(OCC(=O)Nc2c(C)nn(C)c2C)c(C)c1 | -0.2% | / | 0.8% | 0.9%
CCOc1ccccc1/C=C(\C#N)C(=O)NC1CC1 | -0.3% | / | / | -15.4%
CCNC(=O)NC(=O)CN(C)c1ccccc1 | 1.3% | -12.7 | -0.4% | 12.2%
COc1ccc(-c2noc(CNC(=O)c3ccoc3C)n2)cc1 | 0.4% | / | -11.8% | 21.5%
COc1ccccc1OCC(=O)NCc1ccco1 | 0.0% | 3.1 | -8.5% | 5.6%
O=C(CSc1nc(-c2ccccc2)cc(=O)[nH]1)Nc1ccc(F)c(F)c1 | -3.7% | / | -2.1% | 1.0%
Cc1ccc(C)c(NC(=S)N2CCN(CCO)CC2)c1 | 0.7% | -1.3 | -3.9% | 2.3%
Cc1cc(C)cc(NC(=S)N2CCN(c3ccc(F)cc3)CC2)c1 | -4.7% | 17.4 | -3.8% | -2.7%
COc1cccc(N2C(=O)C3CCCN3C2c2cccs2)c1 (stereo not given) | -1.0% | 0.4 | -11.9% | -5.1%
O=C1CCC(C(=O)O)N1 (stereo not given) | 0.4% | / | -7.6% | -7.2%
CN(CC(=O)Nc1cccc(F)c1)C(=O)c1ccc(-c2cccc(C(F)(F)F)c2)o1 | -4.0% | / | / | -4.3%
CCOc1ccc(C(=O)OCC(=O)NC2CCCCCCC2)cc1 | -1.6% | / | / | -21.7%
Cc1ccc(NC(=O)C2CC(=O)N/C(=N/NC(=O)c3ccc(C)cc3)S2)cc1 (stereo not given) | -1.3% | -1.6 | -1.5% | 25.4%
COc1ccc(-c2noc(C(C)n3nc(C)c([N+](=O)[O-])c3C)n2)cc1OC (stereo not given) | -0.8% | -13.2 | -1.7% | -8.2%
CCc1nn2c(=O)cc(COc3ccc(NC(=O)c4ccco4)cc3)nc2s1 | ? | / | -1.7% | 4.0%
CC1CCC(NC(=O)c2cc(Cl)nc3ccccc23)CC1 (stereo not given) | 2.5% | / | / | 19.4%
O=C(Nc1ccccc1)N1CCCN(c2ccc(C(F)(F)F)cn2)CC1 | -5.1% | -9.4 | 12.8% | 5.4%
CCCCN(CC)CCCNC(=O)CC1Nc2ccccc2NC1=O (stereo not given) | -2.3% | 6.1 | -3.1% | -8.3%
COc1ccccc1/C=C/[C@@H]1C[C@H]2CN(Cc3cccc(Cl)c3)C(=O)[C@]23CCCN13 | -1.6% | 2.6 | 0.9% | 8.0%
COc1cc(C(=O)N/N=C/c2sc(N3CCOCC3)nc2-c2ccccc2)cc(OC)c1OC | ? | -19.5 | -0.2% | ?
Cc1ccc(C(=O)N2CCN(CCNC(=O)C(=O)NC(C)C)CC2)cc1 | 1.8% | -0.7 | 0.3% | 0.7%
C=CCc1ccc(OCCCCN2CC(C)CC(C)C2)c(OC)c1 (stereo not given) | -1.6% | -4.8 | -0.2% | -5.5%

Part of the list above, with each value named.
SMILES: CCCCN(CC)CCCNC(=O)CC1Nc2ccccc2NC1=O (stereo not given)
  Rango-impB inh: -2.3%	GLA inh pH 4.5: 6.1	miR-21 FLuc: -3.1%	Rango dissoc inh: -8.3%
SMILES: COc1ccccc1/C=C/[C@@H]1C[C@H]2CN(Cc3cccc(Cl)c3)C(=O)[C@]23CCCN13
  Rango-impB inh: -1.6%	GLA inh pH 4.5: 2.6	miR-21 FLuc: 0.9%	Rango dissoc inh: 8.0%
SMILES: COc1cc(C(=O)N/N=C/c2sc(N3CCOCC3)nc2-c2ccccc2)cc(OC)c1OC
  Rango-impB inh: ?	GLA inh pH 4.5: -19.5	miR-21 FLuc: -0.2%	Rango dissoc inh: ?
SMILES: Cc1ccc(C(=O)N2CCN(CCNC(=O)C(=O)NC(C)C)CC2)cc1
  Rango-impB inh: 1.8%	GLA inh pH 4.5: -0.7	miR-21 FLuc: 0.3%	Rango dissoc inh: 0.7%

(more compounds)
SMILES | Rango-impB inh | GLA inh pH 4.5 | miR-21 FLuc | Rango dissoc inh
CC1=C(C#N)C(NC(=O)c2ccccc2Cl)(C(F)(F)F)C(=O)N1 (stereo not given) | 0.8% | 3.0 | -3.1%&-1.2% | 3.8%
O=C(Nc1cc(S(=O)(=O)N2CCCCCC2)ccc1OCC(F)(F)F)C1CCC1 | -2.0% | / | -5.6% | -7.9%
O=S(=O)(Nc1ccc(S(=O)(=O)N2CCCCC2)cc1)c1cccs1 | -1.7% | -8.2 | -4.0% | -9.7%
O=C(CC1Sc2ncnn2C1=O)Nc1ccc(Br)cc1 (stereo not given) | 3.7% | -0.7 | 0.9% | 34.3%
Cn1c(=O)cc(SCC(=O)N2CCN(C(=O)c3ccco3)CC2)c2ccccc21 | ? | 6.1 | 2.3% | -3.4%
CCOC(=O)C(CC)Sc1cc(C)nc2ccc(OC)cc12 (stereo not given) | -0.4% | -4.4 | 4.2% | 0.6%
CC(=O)C(C(c1ccccc1)c1c[nH]c2ccccc12)[N+](=O)[O-] (stereo not given) | -0.3% | / | 18.1% | 2.4%
OCC1OC(n2cnc3c(NCCc4ccccc4)ncnc32)C(O)C1O (stereo not given) | 5.0% | / | / | -0.3%
COc1ccc2c(C)cc(N3CCOCC3)nc2c1 | 0.0% | 8.9 | -38.6% | 7.5%
Fc1ccc(COc2cccc(CNCc3ccncc3)c2)cc1 | 2.6% | 8.5 | 7.9% | -9.5%
C/C(=N\Nc1nnc(C)c(=O)[nH]1)C(=O)O | -2.4% | -18.7 | 1.9% | 1.9%
Cc1cc(OCC(=O)N2CCOCC2)c(C(C)C)cc1Cl | 0.9% | -4.7 | -7.3% | 7.5%
CC(C)(C)Nc1c(-c2cccs2)nc2ccccn12 | -3.2% | 5.5 | -10.4% | 4.6%
O=C1c2ccccc2CN1CCNS(=O)(=O)c1ccc2ccccc2c1 | -0.6% | 4.2 | -2.2% | 12.7%
O=C(CN1C(=O)c2ccccc2C1=O)Nc1nnc(C2CCCO2)s1 (stereo not given) | 2.3% | 5.2 | 1.9% | -11.5%
CC(=O)c1ccc(OCC(=O)Nc2ccccc2C(=O)NC2CC2)cc1 | 1.1% | / | -6.7% | 3.2%
O=C(Cc1cccc([N+](=O)[O-])c1)Nc1ccc(C(=O)N2CCCCC2)cc1 | 2.3% | / | / | 9.2%
O=C(Nc1cccc(C(F)(F)F)c1)C(=O)N1CCCCC1 | 0.0% | 0.9 | -35.3% | -3.9%
O=C(N/N=C/c1cccn1-c1ccc(O)cc1)c1cccc2ccccc12 | 2.1% | / | 4.7% | 4.3%
CN(C)S(=O)(=O)c1cccc(NC(=O)COC(=O)COc2ccccc2[N+](=O)[O-])c1 | -3.7% | 1.1 | 5.3% | -2.2%
CCOc1ccc(NC(=O)N(CC(C)C)CC(C)C)cc1 | -4.5% | -3.7 | -6.6% | 2.8%
CN1CCN(c2nnc(-c3ccc(Cl)cc3)c3ccccc23)CC1 | 2.4% | / | 0.0% | -5.6%
COc1cc(S(=O)(=O)n2cnc(C)c2)ccc1Br | 0.2% | 9.8 | 2.5% | -6.1%
